D2 ag: human D2 receptor agonism in beta-arrestin assay; DiscoveRx PathHunter D2 beta-arrestin, luminescence, 90 min; 100% = 57 uM dopamine signal; activation, % (concentration not given with the values); actives 0.084% (n = 360,000); AID 624465; in the data active = activation above about 40%; inconclusive = about 15% to 40%; inactive = below about 15%; further: compound concentration not given in the record; the text of the record calls up to 30% inactive
Target sequence (P14416 whole entry, looked up): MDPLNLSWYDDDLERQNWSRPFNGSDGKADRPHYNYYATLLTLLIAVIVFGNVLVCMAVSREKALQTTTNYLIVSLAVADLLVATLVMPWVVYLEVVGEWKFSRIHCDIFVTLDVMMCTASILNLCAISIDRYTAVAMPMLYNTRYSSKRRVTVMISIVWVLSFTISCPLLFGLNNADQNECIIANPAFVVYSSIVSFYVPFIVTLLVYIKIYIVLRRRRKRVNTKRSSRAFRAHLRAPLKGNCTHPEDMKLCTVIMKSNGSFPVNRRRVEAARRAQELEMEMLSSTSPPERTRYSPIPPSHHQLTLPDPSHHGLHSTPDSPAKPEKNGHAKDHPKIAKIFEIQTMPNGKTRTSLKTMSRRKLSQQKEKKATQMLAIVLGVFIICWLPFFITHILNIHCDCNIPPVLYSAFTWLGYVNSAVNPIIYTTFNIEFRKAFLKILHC
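Agonist mode: compounds alone added to overnight-plated D2 PathHunter cells for 90 min at 37 C, with 57 uM final dopamine (EC100) defining full response. Beta-arrestin recruitment detected by chemiluminescent reagent, read after 1 h at ambient temperature.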
CtBP-E1A blk: inhibitors of CtBP/E1A interaction. AlphaScreen GST-E1A/His-CtBP binding, 1536-well; active compounds read low; control for the full effect not named in the record. activity change, % (concentration not given with the values). actives 0.49% (n = 340,000); in the data active means activity change below about -65%; inconclusive means about -30% to -65%; inactive means above about -30%; further: on the % scale 0 is the no-effect control and ±100 the full control effect
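Protein mix (5X: 125 nM each GST-E1A, His-CtBP) was incubated with pinned compound 2 h at 37 deg C in dark, in 50 mM Tris pH 8.0 buffer with 300 mM NaCl. Glutathione donor and nickel acceptor beads followed; AlphaScreen signal read after 1 h.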
PINK1 modulator: modulators of PINK1 expression. PINK1 immunofluorescence, high-content cytometry, 24 h. Potency, µM (highest dose often 76.6 µM), inactives show at the highest dose activation (PINK1 increase), most hits filed as activators. actives 0.2% (n = 410,000). AID 624263; active = well fitted activation curve with a large enough effect; inconclusive = small, poorly fitted or top-dose-only effect; inactive = flat fitted curve, though single readings scatter; cell line not stated here;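 further: potency means the concentration at half of the fitted maximal effect; % of control where 0% means no effect; nearly all actives have a fitted effect of over 65% in size; a mitochondrial uncoupler was the plate control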
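Measures PINK1 amount and localization on or inside mitochondria by immunofluorescence. Stable cells get compounds at 5 concentrations for 24 hours before fixation and staining; CCCP controls included.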
TRPML1 agonist: human mucolipin-1 channel agonism. activation, % (no concentration beside the values). actives 0.12% (n = 410,000). Q9GZU1. TRPML1-expressing cells, Ca2+ dye fluorescence, FDSS; host cell line not named in the record; reference of the full effect not given here; in the data active = activation above about 50%; inconclusive = about 30% to 50%; inactive = below about 30%; further: 0% is about no effect; the text of the record puts the active cut at 80%
Target sequence (Q9GZU1 whole entry, looked up): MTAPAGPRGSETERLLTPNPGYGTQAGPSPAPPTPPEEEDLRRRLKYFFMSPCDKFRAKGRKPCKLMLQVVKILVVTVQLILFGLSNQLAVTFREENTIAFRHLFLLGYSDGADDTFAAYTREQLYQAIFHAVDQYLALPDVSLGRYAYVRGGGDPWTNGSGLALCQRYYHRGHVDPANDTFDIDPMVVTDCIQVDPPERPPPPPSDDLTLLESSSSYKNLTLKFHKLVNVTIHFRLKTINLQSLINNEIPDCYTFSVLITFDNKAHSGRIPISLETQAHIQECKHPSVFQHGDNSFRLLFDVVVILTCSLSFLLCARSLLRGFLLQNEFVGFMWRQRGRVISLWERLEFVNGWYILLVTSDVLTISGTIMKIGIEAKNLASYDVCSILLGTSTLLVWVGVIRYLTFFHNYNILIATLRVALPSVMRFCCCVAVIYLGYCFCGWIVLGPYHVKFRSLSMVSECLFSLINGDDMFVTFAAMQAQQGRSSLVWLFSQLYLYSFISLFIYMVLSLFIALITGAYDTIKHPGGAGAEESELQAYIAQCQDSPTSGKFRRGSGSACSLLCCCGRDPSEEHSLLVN
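In this qHTS format, compounds were pin-transferred onto Ca8-dye-loaded TRPML1-DL cells induced with Tet overnight, and intracellular Ca2+ fluorescence was recorded kinetically for 110 s after a 10 s baseline. A subsequent 4uM final 54-4 (EC80) addition followed by a second 110 s read served as the antagonist phase.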
D2 PAM: human D2 receptor positive allosteric modulation. P14416. DiscoveRx D2 beta-arrestin cells, luminescence, 90 min; 100% = 57 uM dopamine signal. potentiation, % (test concentration not listed). actives 0.23% (n = 360,000). AID 624464; active = potentiation of 50% or more; inconclusive = 30% to 50%; inactive = 30% or less;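 further: compound concentration not given in the record; tested on top of an EC20 dose of dopamine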
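PathHunter beta-arrestin assay in DiscoveRx D2 cells. Compounds were added with an EC20 of dopamine (50 nM final) for 90 min at 37 deg C. Luminescence was read 1 h after detection reagent, with 57 uM dopamine as the EC100 control.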
Six1-Eya2 blk: blocks human Six1 binding to Eya2 | actives 0.56% (n = 360,000) | activity change, % (concentration not given with the values) | AlphaScreen GST-Six1/His-Eya2 binding, biochemical; active compounds read low; control for the full effect not named in the record | Q15475+O00167; in the data active = activity change below about -65%; inconclusive = about -30% to -65%; inactive = above about -30%; further: on the % scale 0 is the no-effect control and ±100 the full control effect
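Six1/Eya2 binding was read as AlphaScreen signal after compounds were pinned into GST-Six1 plus His-tagged Eya2 (5X stock 250/500 nM) in pH 8.0 Tris/NaCl/TCEP buffer, beads added, then incubated 1 h, 37 C, dark.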
Active calls of the source: *; ? = inconclusive; nt = not tested or not shown; & = joins results of further samples; [ ] = another dose, or the depositor's remark.

Value order – D2 ag, CtBP-E1A blk, PINK1 modulator, TRPML1 agonist, D2 PAM, Six1-Eya2 blk
1) CC(C)Oc1ccc(S(=O)(=O)N2CCOCC2)cc1NC(=O)c1cc([N+](=O)[O-])ccc1N1CCOCC1
  0.7, 4, -3.6%, 1.8, -7, -5
2) O=C1NC(=O)C2(COC(c3cccc([N+](=O)[O-])c3)OC2)S1 (stereo unspecified)
  -0.8, 7, 2.2%, -0.5, -3, -6
3) CCN(CC)C(=O)Cn1cc(S(=O)(=O)CC(=O)NCCc2ccccc2)c2ccccc21
  -1.9, 10, 1.1%, -0.2, 1, 4
4) COc1ccc(F)cc1-c1cc(C(=O)Nc2ccc(NC(C)=O)cc2)[nH]n1
  1.0, 1, 1.1%, -0.6, -2, -8
5) O=S1(=O)N[C@@H](Cc2ccccc2)COc2cccc(N3CCSCC3)c21
  nt, 1, 0.4%, 2.2, nt, -13
6) COc1ccc(CCNC(=O)CN2C(=O)NC(CCSC)C2=O)cc1 (stereo unspecified)
  9.3, 7, 1.1%, 1.2, -35, 6
7) COc1ccc(CNCCCNCc2ccc(OC)c(OC)c2)cc1OC
  0.5, 0, 0.2%, -0.5, -5, 5
8) CCOC(=O)c1c(-c2ccccc2)cn2ccccc12
  0.5, 10, 4.4%, 1.0, -34, 22
9) Cc1cc(O)cc(=O)n1C
  -1.9, 7, 2.3%, 0.1, 1, -4
10) O=C(NCC1CCCO1)C1CC(c2ccccc2Cl)=NO1 (stereo unspecified)
  -2.4, 6, 9.2%[38.3 µM], -0.3, 5, -1
11) C=CCn1c2ccccc2c(=O)c2cc(C#Cc3cc(OC)cc(OC)c3)ccc21
  -1.3, 81, 1.2%, 1.6, 2, 85
12) N#CCC(=O)N/N=C/c1cn(Cc2cccc3ccccc23)c2ccccc12
  -0.1, nt, 11%, 1.9, 2, 5
13) O=C(Cc1ccccc1)NCc1cccnc1
  -3.5, -2, 0.5%, -1.1, -4, -2
14) NC(=O)c1c(NC(=O)c2ccccc2)sc2c1CCC2
  -0.9, -8, -1.9%, 0.2, 1, -11
15) COc1ccccc1NC(=O)Nc1nc(CC(=O)N2CCN(c3ccc(F)cc3)CC2)cs1
  4.3, -6, -2.9%, 0.3, 5, -14
16) O=C(COC(=O)CCS(=O)(=O)c1ccc(Cl)cc1)NC1CCCCC1
  -0.1, 1, 0.5%, -0.5, 1, 5
17) Cn1cnnc1SCC(=O)N1N=C(c2ccc(Cl)cc2)CC1c1ccco1 (stereo unspecified)
  -5.2, 4, 0.5%, -0.6, -2, 7
18) O=S(=O)(NCc1ccccc1)NCc1ccc(Cl)cc1Cl
  0.0, 7, 1.3%, 2.7, 3, -2
19) CCC(C(=O)Nc1cccnc1Cl)c1ccccc1 (stereo unspecified)
  -1.2, -17, -0.9%, 0.7, -1, 11
20) CCN(CCNC(=O)C1CCN(Cc2nc(-c3cccc(Cl)c3)oc2C)CC1)c1ccccc1
  -7.1, -26, -0.7%, -0.7, -39, ?

Reprinted from the part before: two compounds; new compounds follow.
Value order – D2 ag, CtBP-E1A blk, PINK1 modulator, TRPML1 agonist, D2 PAM, Six1-Eya2 blk
19) CCC(C(=O)Nc1cccnc1Cl)c1ccccc1 (stereo unspecified)
  -1.2, -17, -0.9%, 0.7, -1, 11
20) CCN(CCNC(=O)C1CCN(Cc2nc(-c3cccc(Cl)c3)oc2C)CC1)c1ccccc1
  -7.1, -26, -0.7%, -0.7, -39, ?
21) O=C(CN1CCN(c2ccccc2F)CC1)NC(=O)NCc1ccco1
  -4.2, nt, -0.8%, 4.0, 19, -5
22) O=C(CSc1nc2ccccc2n1CCc1ccccc1)NC1CCS(=O)(=O)C1 (stereo unspecified)
  -2.8, -3, -0.4%, 2.3, 2, -1
23) CC(C)(C)c1ccc(NC(=S)NCc2cccnc2)cc1
  -0.9, 5, 2.6%, 1.8, -9, 4
24) COc1ccc(N(CC(=O)N2CCN(Cc3ccc4c(c3)OCO4)CC2)S(C)(=O)=O)cc1OC
  -3.1, 12, 4.0%, -0.5, -3, -4
25) CCCc1nc2c(o1)CC(CC(C)SCC)CC2=O (stereo unspecified)
  -0.8, 4, 0.4%, -0.8, -9, -4
26) O=C(NNC(=O)c1ccccc1F)c1ccc(-c2ccccc2Cl)o1
  -1.5, -3, -1.4%, -0.8, -23, -13
27) CCOC(=O)Cc1c(C)nc2c(-c3cccc(Br)c3)cnn2c1C
  -3.1, -3, 7.3%, 1.4, -6, 5
28) CCOc1cc2c(cc1O)C(=NOC)CC1C2CCC2(C)C(O)CCC12 (stereo unspecified)
  0.2, 5, 2.4%, -0.1, -1, -20
29) CC(Oc1cccc(Cl)c1)C(=O)Nc1ccc(S(=O)(=O)NC2=NCCCCC2)cc1 (stereo unspecified)
  1.1, -18, 0.3%, 0.3, 2, -6
30) COc1ccc(CNC(=O)COC(=O)CCC(=O)c2cccs2)cc1
  -2.9, 2, -0.9%, -0.2, -2, 12
31) Cc1c(C(=O)NCCCN2CCOCC2)sc2ncnc(N3CCN(c4ccccc4)CC3)c12
  -3.1, -15, 0.9%, 1.7, -18, -5
32) Cc1cc(=O)n2nc(N3CCC(C(=O)NCc4ccccc4)CC3)sc2n1
  -2.0, -21, 1.1%&-0.8%, -0.1&-0.9, -2, -11
33) COc1ccc(CNc2oc(C)nc2C#N)cc1
  -1.0, 2, 0.5%[38.3 µM], -0.7, -5, -2
34) COc1ccc(C(=O)Nc2nnc(S(=O)(=O)N3CCC(C)CC3)s2)cc1OC
  -1.8, -11, 2.9%&1.8%, -0.6&0.4, -7, -12
35) CCc1cc(=O)oc2c(C)c(OC(C)C(=O)NCCCN3CCOCC3)ccc12 (stereo unspecified)
  -1.1, -5, 0.1%, -0.5, -7, 2
36) Cc1nn(-c2ccccc2)nc1C(=O)Nc1cccc(C(=O)NC2CC2)c1
  -2.0, 0, 0.8%, -0.3, -10, -3
37) O=C(Nc1ccncc1)c1ccc(Cl)c(S(=O)(=O)N2CCc3ccccc32)c1
  13, ?, 3.6%, 2.7, 4, -14
38) Cc1oc(-c2ccccc2Cl)nc1CSCC(=O)O
  -1.9, -2, 6.6%, -0.4, -3, 10
39) C(=N\N1CCN(Cc2cccc3ccccc23)CC1)/c1cccnc1
  -0.8, -4, 6.4%[38.3 µM], 2.4, -11, -4
40) COc1ccc(Nc2c(-c3cc4ccccc4o3)nc3nc(C)cc(C)n23)cc1
  nt, 0, 0.1%, -0.9, nt, -22
41) Cn1ncc([N+](=O)[O-])c1C(=O)Nc1ccc(Cl)cc1
  -7.0, -6, -0.5%, nt, -6, -8
42) CCOC(=O)CSc1nc2cccnc2n1-c1ccc(F)cc1
  -1.3, 12, 0.4%, -1.4, -3, 8
43) N#Cc1ccccc1NC(=S)Nc1ccc(F)cc1
  -5.0, 13, 0.5%, 0.9, -5, 10
44) O=C(NCC(=O)N1CCN(S(=O)(=O)c2ccccc2F)CC1)c1ccc2c(c1)OCO2
  -5.3, -18, 2.2%, -0.6, -23, 2
45) Cc1ccc(NC(=O)C=NOCC(=O)Nc2cc(C)cc(C)c2)cc1
  2.4, 3, 2.6%, 3.0, -14, -9
46) COc1ccc(-c2ccc(CN3C(CC(C)C)C(=O)N(Cc4cn(Cc5ccco5)nn4)CCS3(=O)=O)cc2)cc1 (stereo unspecified)
  -0.1, 1, -1.2%, 0.8, -7, 0
47) CC(Sc1nnc(-c2ccccc2F)n1C1CC1)C(N)=O (stereo unspecified)
  0.8, 0, 0.0%, 0.3, 1, -4
48) CC(C)(C)c1ccc(C(=O)N/N=C/c2ccccn2)cc1
  3.8, -29, 4.2%, 0.7, -7, -22
49) COc1ccc(S(=O)(=O)N2CCNC(=O)C2)cc1Br
  -4.3, -14, -0.1%, 0.1, -8, 17
50) Cc1ccc(NC(=O)COC(=O)CCc2ccccc2)c(Cl)c1
  -6.4, 25, 2.0%, 0.8, -4, 20
51) O=C(COc1ccccc1)OCC(=O)N1CCCc2ccccc21
  5.1, -5, -1.4%, 2.2, 9, 0
52) CCOc1ccccc1C(=O)NCC(=O)OCC(=O)N1CCCC1
  1.0, 7, 4.6%, -0.5, 15, 7
53) CN(C(=O)CN1C(=O)NC(C)(CCc2ccccc2)C1=O)c1ccccc1 (stereo unspecified)
  -4.7, -1, -0.3%, 0.1, 7, 10
54) Cc1cccc(-c2nc(C#N)c(N3CCC(C)CC3)o2)c1
  -2.7, 13, 0.1%, 0.4, 3, -4
55) CC(=O)NCCC(=O)NCC1(N(C)Cc2ccccc2)Cc2ccccc2C1
  -1.1, 8, 1.3%, 0.3, 0, -3
56) CCOC(=O)C1=C(c2ccccc2)O/C(=C(/C(=O)OC)C(F)(F)F)S1
  1.5, 25, 3.1%[38.3 µM], 0.1, -9, 7
57) CCCCN(C(=O)c1cnc(C)cn1)c1c(N)n(CCC)c(=O)[nH]c1=O
  -2.2, 0, 0.1%, 4.0, -3, 0
58) COc1ccc(C(=O)NC(=S)NNC(=O)c2ccc(NC(C)=O)cc2)cc1Br
  -3.2, ?, 2.3%, 1.0, -8, ?
59) CCOC(=O)Cc1nnc(NC(=O)CC)s1
  -1.3, 3, 0.2%, -0.2, 6, 0
60) CC1(C)CC(NCCC(c2ccccc2)c2ccco2)CCO1 (stereo unspecified)
  -5.0, -7, 0.8%, 0.1, -5, -3
61) Cc1cccc(Cn2cnc3c(nnn3Cc3ccccc3F)c2=O)c1
  1.7, 35, 4.5%[38.3 µM], 1.5, 7, 11
62) CCc1cccc(OCC(=O)Nc2cc(Cl)ccc2-n2cncn2)c1
  -0.7, 0, 0.4%, 5.3, -6, 4
63) N/C(=N\c1nc2ccccc2o1)NC(=O)c1ccc(F)cc1
  -0.7, -2, 1.8%, 0.0, -10, 8
64) COc1cc(C(=S)N2CCN(C)CC2)ccc1OCC(=O)NCc1ccccc1
  2.6, -25, -0.7%, 0.6, 0, 3
65) C=CCn1c(=O)c2ccccc2n2c(SCC(=O)N(C)C)nnc12
  2.9, -10, 3.1%, 1.4, 12, 2
66) COc1ccc2c(COC(=O)c3cccc(S(=O)(=O)NCC(C)C)c3)cc(=O)oc2c1
  3.6, -2, 3.9%, 1.1, -2, -7
67) CN(C)CCN(C(=O)c1ccc2ccccc2c1)c1nc2ccc(F)cc2s1
  -2.3, nt, -0.2%, 1.1, -11, -1

Pulled one by one from the entries so far (2):
Value order – D2 ag, CtBP-E1A blk, PINK1 modulator, TRPML1 agonist, D2 PAM, Six1-Eya2 blk
62) CCc1cccc(OCC(=O)Nc2cc(Cl)ccc2-n2cncn2)c1
  -0.7, 0, 0.4%, 5.3, -6, 4
67) CN(C)CCN(C(=O)c1ccc2ccccc2c1)c1nc2ccc(F)cc2s1
  -2.3, nt, -0.2%, 1.1, -11, -1

Compounds as they come; 1.3% or so of the library scored in one or more.
